Screens from PubChem.
VCAM-1 up imaging: enhancers of VCAM-1 display on endothelial cells, imaging, high-content imaging, pooled HUVEC, TNFa stimulus (AID 457); 10,000 tested, 0.2% active; Pooled HUVEC, TNFa-induced VCAM-1 immunofluorescence imaging; hits of this screen are not shown here; calls only;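 active = a top-ranked rise in VCAM-1 staining upheld on image or statistical review; inactive = the rest, including candidates rejected on review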;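 note: compounds tested at 5 µM in the well; cells exposed to compound for 24 hours before fixing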
FPR ligand: binds the human formylpeptide receptor FPR. P21462. FPR-expressing cells, fluorescent ligand binding, flow cytometry. inhibition, %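 (tested at 6.7 µM)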. 24,000 tested, 0.74% active. AID 440;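 note: 0% = buffer wells and 100% = receptor blocker peptide wells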
Target sequence (P21462 whole entry, looked up): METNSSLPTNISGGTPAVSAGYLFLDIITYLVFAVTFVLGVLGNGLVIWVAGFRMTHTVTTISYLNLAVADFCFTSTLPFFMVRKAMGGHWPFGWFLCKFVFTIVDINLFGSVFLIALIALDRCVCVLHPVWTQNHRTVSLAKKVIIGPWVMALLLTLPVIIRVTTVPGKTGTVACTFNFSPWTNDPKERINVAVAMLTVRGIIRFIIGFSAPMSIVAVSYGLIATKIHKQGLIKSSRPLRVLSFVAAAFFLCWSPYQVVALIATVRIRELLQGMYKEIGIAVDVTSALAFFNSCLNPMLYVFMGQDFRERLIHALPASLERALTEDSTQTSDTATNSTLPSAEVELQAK
VCAM-1 imaging: suppression of endothelial VCAM-1 upregulation – imaging, high-content imaging, pooled HUVEC, TNFa stimulus (AID 456) | HUVEC TNFa-induced VCAM-1 surface expression, immunofluorescence imaging; numbers were filed only for top-ranked candidate wells | inhibition, % at 5 µM; hits with a dose series show IC50 in µM | 10,000 tested, 0.2% active;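 active = top tenth filtered wells with inhibition above zero that passed visual or statistical confirmation; inactive = the rest, including hits rejected on review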;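 note: 0% = stimulated vehicle wells and 100% = unstimulated cells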
VCAM-1 inhibition: inhibitors of TNFa-induced VCAM-1 surface display, cell-based, plate reader, pooled HUVEC, TNFa stimulus (AID 454); HUVEC TNFa-induced VCAM-1 surface immunofluorescence, plate reader; numbers were filed only for top-ranked candidate wells; inhibition, % at 5 µM; 10,000 tested, 0.2% active;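 active = compound among top-ranked inhibitors of TNF-induced VCAM-1 adhesion protein staining, with the hit upheld by image or statistical review; inactive = the rest, including hits rejected on review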;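 note: 0% = TNFa with vehicle and 100% = cells without TNFa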
FPRL1 ligand: ligands of human FPRL1, also counter-screen for FPR ligands; P25090; FPRL1-expressing cells, fluorescent ligand binding inhibition, flow cytometry; inhibition, %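 (tested at 6.7 µM)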; 24,000 tested, 0.3% active; AID 441;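 note: 0% = buffer alone and 100% = receptor blocker peptide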
Target sequence (P25090 whole entry, looked up): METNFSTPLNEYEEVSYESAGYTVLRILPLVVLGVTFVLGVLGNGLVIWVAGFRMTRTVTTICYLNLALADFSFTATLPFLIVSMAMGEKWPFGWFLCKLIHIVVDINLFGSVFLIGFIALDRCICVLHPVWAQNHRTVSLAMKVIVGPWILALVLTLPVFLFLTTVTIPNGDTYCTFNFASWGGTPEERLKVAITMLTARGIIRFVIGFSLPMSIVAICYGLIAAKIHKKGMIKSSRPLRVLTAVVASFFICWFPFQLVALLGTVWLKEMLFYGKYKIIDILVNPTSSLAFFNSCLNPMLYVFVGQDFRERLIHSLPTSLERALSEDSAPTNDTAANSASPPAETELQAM
The depositor's hits bear a star; i = inactive; / = no result given.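 Rule for the calls, unless noted: active = mean above 30%; inconclusive = self-fluorescent; inactive = the rest.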 These rows are one share of the data; the hit share may differ from the screen's.

SMILES | VCAM-1 up imaging | FPR ligand | VCAM-1 imaging | VCAM-1 inhibition | FPRL1 ligand
CCN1CCN(CCNC(=O)c2cn(C(C)c3ccccc3F)nn2)CC1 (configuration not stated) | i | -3.2 | i | i | -0.2
Cc1ccc(CNC(=O)c2ccc(NS(=O)(=O)c3c(C)noc3C)cc2)cc1 | / | 0.3 | / | / | -2.4
O=C(C1CC1)N1CCc2cc(S(=O)(=O)N3CCOCC3)ccc21 | / | -1.5 | / | / | 0.8
CN(CCNC(=O)c1ccc(N2CCCC2=O)cc1)CCc1ccccc1 | i | -2.9 | i | i | -4.5
COCCn1c(=O)[nH]c2cc(C(=O)N3CCN(Cc4ccc5c(c4)OCO5)CC3)ccc2c1=O | i | 23.6 | i | i | 1.5
CC1CCN(Cc2ccc(NC(=O)CC3Oc4ccccc4NC3=O)cc2)CC1 (configuration not stated) | / | -8.6 | / | / | -0.3
CCCCC(CC)CNC(=O)CCS(=O)(=O)c1cccc2nsnc12 (configuration not stated) | / | 1.4 | / | / | -2.8
Cc1cc(C)c2nc(N3CCCC(C(=O)N4CCC(C(N)=O)CC4)C3)sc2c1 (configuration not stated) | / | 13.8 | / | / | 6.3
CCOCC(=O)Nc1c(C(=O)OCC)oc2ccccc12 | / | -2.1 | / | / | 9.9
CC1(C(=O)NCc2cccnc2)CCC(=O)N1CCc1ccccc1 (configuration not stated) | / | 1.5 | / | / | -4.4
COc1cccc(-c2cc(C(=O)N3CCN(Cc4ccccc4)CC3)no2)c1 | / | -4.3 | / | / | -3.8
COc1ccc(CNC(=O)CCc2nc(-c3ccccc3F)no2)c(OC)c1 | i | -1.1 | i | i | 6.4
Cc1cccc(-n2c(=O)[nH]c3c(C(N)=O)nc(CC(C)C)nc32)c1 | / | -2.7 | / | / | 1.4
COc1ccc(S(=O)(=O)Cc2ccc(C(=O)NCc3ccco3)o2)cc1 | / | 12.0 | / | / | 0.2
CCC1CCCCN1C1Sc2ccc(C(=O)OC)cc2NC1=O (configuration not stated) | / | -7.6 | / | / | -5.3
CC1(C)CC(=O)c2cc(OCC(=O)NCCCN3CCN(c4ccccc4F)CC3)ccc2O1 | i | 3.6 | i | i | -2.3
CCOc1ccc2c(O)csc2c1 | i | 5.6 | i | i | 8.3
Cc1cc2c(cc1C)-c1nnnn1C(C)(C)C2 | i | -5.7 | i | i | 1.5
COC(=O)CNC(=O)CCCCC(=O)NCC(=O)OC | / | 9.4 | / | / | -6.6
COc1cc(C(=O)N2CCN(C(=O)CC(C)C)CC2)cc(OC)c1OC | i | -2.4 | i | i | 0.0
Cc1ccc(SCC(=O)NCCN2C(=O)CSC2=O)c(C)c1 | i | 4.2 | i | i | 1.7
CC(C)NC(=O)c1ccccc1NC(=O)CCS(=O)(=O)Cc1ccccc1 | i | -5.8 | i | i | 0.3
CC(C)(C)n1nc2c(c1NC(=O)c1ccc(Br)o1)CS(=O)C2 (configuration not stated) | / | 6.1 | / | / | 0.0
Cc1ccc(N2C(N)=C(C#N)C(c3cccnc3)C3=C2CCCC3=O)cc1 (configuration not stated) | / | -2.3 | / | / | 0.0
O=C(CN1CCN(S(=O)(=O)c2cc(Cl)ccc2Cl)CC1)Nc1ccc2c(c1)OCCO2 | / | 2.2 | / | / | -4.4
CCCOc1ccc(C2c3c(oc4cc(C)c(C)cc4c3=O)C(=O)N2CCCN2CCOCC2)cc1 (configuration not stated) | / | 5.8 | / | / | 5.1
COCc1nnc(NS(=O)(=O)c2ccc(Br)cc2)s1 | i | -0.5 | i | i | -3.4
O=C(C1CCN(S(=O)(=O)N2CCOCC2)CC1)N1CCN(Cc2ccc3c(c2)OCO3)CC1 | / | 1.0 | / | / | 5.2
Cc1ccc(S(=O)(=O)NCC(c2cccnc2)N(C)C)cc1 (configuration not stated) | i | -6.2 | i | i | 2.1
O=C(NC1CCCCCCC1)C1CCC(CNc2c(N3CCCC3)c(=O)c2=O)CC1 (configuration not stated) | / | 2.8 | / | / | 5.6
Cc1ccc(S(=O)(=O)NCC2CCC(C(=O)NCCCN3CCOCC3)CC2)cc1 (configuration not stated) | i | 0.6 | i | i | -0.9
COc1ccc(CNC(=O)CS(=O)Cc2nc(-c3ccc(C)cc3)oc2C)cc1 (configuration not stated) | / | 1.2 | / | / | -4.3
O=C(Oc1ccc(Cl)c2cccnc12)N1CCOCC1 | / | 13.6 | / | / | 16.5
O=C(O)C1CCN(C(=O)NC2CCCCC2)CC1 | / | 2.2 | / | / | 0.5
CCOC(=O)N1CCC(NC(=O)CCN2C(=O)COc3ccccc32)CC1 | i | 0.0 | i | i | -2.1
C[N+](C)(C)CCNC(=O)c1c(O)c2c([nH]c1=O)CCCC2 | / | -3.8 | / | / | 3.8
CCS(=O)(=O)N1CCC(C(=O)OCC(=O)c2ccc(Br)cc2)CC1 | / | -4.9 | / | / | -3.3
CCOC(=O)N1CCN(C(=O)Nc2ccc3oc(C)nc3c2)CC1 | i | -5.0 | i | i | 8.2
COc1ccc(OC)c(CNC(=O)C2CCN(C(=O)N(C)C)CC2)c1 | / | -8.4 | / | / | 0.5
CCCOc1ccc2oc(=O)c3c(c2c1)CCCN3C(=O)CN1CCCC(C(=O)OCC)C1 (configuration not stated) | / | 5.9 | / | / | 5.1
Cc1cccc(C)c1NC(=O)Nc1cccs1 | / | -3.6 | / | / | 4.0
Cc1cccc(C)c1OCC(O)Cn1ccnc1C (configuration not stated) | / | -6.6 | / | / | 3.5
CCCN(CCC)CCCNC(=O)CC(C(=O)N1CCc2ccccc21)n1ccnc1 (configuration not stated) | / | -7.1 | / | / | -8.5
COc1cc(NC(=O)Nc2cccc(Cl)c2)c(OC)cc1NC(=O)CN1CCCCC1 | i | -3.3 | i | i | -3.4
Cc1cc(NC(=O)CSCCc2ccncc2)no1 | / | 1.7 | / | / | -1.8
COc1ccccc1CNC(=O)Cn1cc2c(n1)CCCC2 | / | -2.7 | / | / | -1.9
OC(Cn1nnc2ccccc21)Cn1c(C(F)(F)F)nc2ccccc21 (configuration not stated) | / | 0.7 | / | / | -0.5
CC1=C(C(=O)N(C)CCC#N)C2(CCCCC2)OC1=O | / | -5.5 | / | / | -2.1
Nc1ncnc2nc(SCCN3CCCCC3)[nH]c12 | i | -5.1 | i | i | -4.2
CCn1c(SCC(=O)N2CCOCC2)nc2c(c1=O)SC(C)C2 (configuration not stated) | i | -5.1 | i | i | 1.7
O=C(c1cc2n(n1)C(C(F)(F)F)CC(c1ccc(F)cc1)N2)N1CCCC1 (configuration not stated) | / | 1.4 | / | / | -17.0
CCOc1ccc(NC(=O)c2ccc3c(c2)N(Cc2ccc(F)cc2)C(=O)CS3=O)cc1 (configuration not stated) | i | 1.0 | i | i | -7.3
CCOC(=O)c1c(C)c(C(=O)N2CCCCCC2)c(C)n1CC | / | 3.4 | / | / | 1.9
O=C(Nc1cccc(-c2cn3cccnc3n2)c1)c1ccco1 | / | -1.4 | / | / | 6.0
CCOC(=O)c1c(C)c(C(=O)Nc2cc(OC)ccc2OC)c(C)n1CC | / | 6.2 | / | / | 2.6
COc1ccc(-n2c(=O)c3c4c(sc3n(CC(=O)NCc3ccco3)c2=O)CCC4)c(OC)c1 | / | 12.7 | / | / | 3.7
Cc1ccc(N(C(=O)CC2NC(=O)NC2=O)C2(C(=O)NC3CCCC3)CCCCC2)cc1 (configuration not stated) | / | -1.9 | / | / | -1.8
Cc1ccc(CNc2nc3ccccc3n3nnnc23)cc1 | / | -23.6 | / | / | 4.2
O=C(Nc1cccnc1)c1cc(-c2ccc(Br)cc2)on1 | / | 3.2 | / | / | 14.9
CCOC(=O)Cn1c(=O)n(C2CCCC2)c(=O)c2ccccc21 | / | 3.8 | / | / | -1.0
More entries:
SMILES | VCAM-1 up imaging | FPR ligand | VCAM-1 imaging | VCAM-1 inhibition | FPRL1 ligand
Cc1nn(C)c(C)c1S(=O)(=O)NC1CCCc2ccccc21 (configuration not stated) | / | -6.9 | / | / | -5.1
Cc1ccc2c(c1)C1CCCC3C1N2CC(=O)N3Cc1ccccc1 (configuration not stated) | i | -1.9 | i | i | -6.3
CCOC(=O)C(C)Sc1nnc(Cn2c(=O)sc3ccccc32)n1-c1ccccc1 (configuration not stated) | / | -1.1 | / | / | 8.0
O=C(CSc1nccn1-c1ccccc1)Nc1ccc2c(c1)OCO2 | / | -0.9 | / | / | 3.1
COCCNC(=O)c1ccc(Cn2c(=S)[nH]c3cc4c(cc3c2=O)OCO4)cc1 | / | 3.0 | / | / | -4.3
CCC(=NC(C)c1ccccc1)c1c(O)n(C)c(=O)n(C)c1=O (configuration not stated) | i | 11.3 | i | i | 5.1
CS(=O)(=O)N1CCCC(C(=O)NCc2ccccn2)C1 (configuration not stated) | / | -4.4 | / | / | -1.6
CC1CCC(NC(=O)Cn2ncc3ccccc32)CC1 (configuration not stated) | i | -0.2 | i | i | -1.4
CCCOc1cccc(-c2nnc(N)s2)c1 | i | -3.5 | i | i | -1.6
CC(C)CC(NS(=O)(=O)c1ccc2c(c1)oc(=O)n2C)C(=O)N1CC=C(c2ccccc2)CC1 (configuration not stated) | / | 4.4 | / | / | -1.8
Cc1ccc(CCNC(=O)CC2Oc3ccc(C)cc3NC2=O)cc1 (configuration not stated) | i | -6.2 | i | i | 0.8
COC(=O)C1(C(=O)OC)Sc2ccccc2C1=O | i | 2.1 | i | i | -1.7
COc1ccc(-n2c(=S)[nH]c3cc(C(=O)NCCCN4CCCC4=O)ccc3c2=O)cc1 | / | 1.1 | / | / | -0.7
COc1ccc(C(=O)N2CCN(c3ccc(C)cc3)CC2)cc1OC | / | -2.0 | / | / | -2.2
Cc1ccc(-n2c(Cc3cccn3C)nnc2SCC(=O)NCc2ccco2)cc1 | / | -2.7 | / | / | -4.1
Cc1cccc(NC(=O)c2oc3c(c2C)C(=O)CC(C)(C)C3)n1 | i | -0.1 | i | i | -3.1
COc1ccc(NC2=NC3(CCCCC3)N=C(N)N2)cc1 | / | 2.0 | / | / | -1.7
Cc1[nH]c(=O)[nH]c(=O)c1S(=O)(=O)Nc1ccc(Oc2ccccc2)cc1 | i | 4.6 | i | i | 9.7
COc1cccc(-n2c(SCC(=O)N3CCOCC3)nc3c([nH]c4ccccc43)c2=O)c1 | / | 5.9 | / | / | 0.3
O=S(=O)(c1cccc(S(=O)(=O)N2CCC(N3CCCCC3)CC2)c1)N1CCOCC1 | i | 12.3 | i | i | 4.2
